STK33 kinase inh: inhibitors of purified STK33 kinase, primary screen, biochemical, ADP-Glo luminescence, homogeneous, cell-free; inhibition, % at 10 µM; MBP phosphorylation; Serine/threonine-protein kinase 33 (Homo sapiens), Q9BYT3; 0.073% of 320,000 active;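 active = inhibition at or above 25%, using the most active replicate where run in duplicate; inactive = inhibition below 25%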
Target sequence (Q9BYT3 whole entry, looked up): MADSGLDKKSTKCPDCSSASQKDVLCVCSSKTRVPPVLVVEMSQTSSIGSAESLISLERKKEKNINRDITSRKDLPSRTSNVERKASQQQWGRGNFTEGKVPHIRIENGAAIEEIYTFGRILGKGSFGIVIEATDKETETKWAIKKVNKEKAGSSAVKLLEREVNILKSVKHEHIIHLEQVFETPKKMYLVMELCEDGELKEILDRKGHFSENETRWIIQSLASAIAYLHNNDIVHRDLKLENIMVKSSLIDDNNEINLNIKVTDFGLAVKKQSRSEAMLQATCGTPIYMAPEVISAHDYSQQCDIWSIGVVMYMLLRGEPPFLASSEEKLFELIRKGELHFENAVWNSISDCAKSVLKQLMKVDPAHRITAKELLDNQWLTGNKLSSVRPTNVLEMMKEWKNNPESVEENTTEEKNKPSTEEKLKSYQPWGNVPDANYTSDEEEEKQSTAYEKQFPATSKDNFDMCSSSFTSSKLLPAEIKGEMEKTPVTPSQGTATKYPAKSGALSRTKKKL
Active calls of the source: *; & = joins results of further samples.

SMILES	STK33 kinase inh
COc1ccc(CCNC(=O)Cn2nc(C(=O)O)c3ccccc3c2=O)cc1OC	0.2
O=C1OC(Nc2ccc3c(c2)OCO3)c2ccccc21 (configuration not stated)	-1.0
Cc1ccc2c(Cl)c(C(=O)Nc3nn[nH]n3)sc2c1	1.9
CCOC(=O)C1=C(c2ccccc2)OC(N)=C(C#N)C1c1cccnc1 (configuration not stated)	-0.3
Cc1ccc(S(=O)(=O)Nc2cc3c4c(c2)CC(=O)N4CCC3)cc1	-0.6
Cc1ccc2c(c1Br)/C(=N/N1C(=O)c3ccccc3C1=O)C(=O)N2	-0.6
OCCNc1nc(Nc2cccc(O)c2)nc2ccccc12	16
O=C(O)CCC(=O)Nc1ccc(C(=O)OCC(=O)c2ccc(Cl)cc2)cc1	-0.6
CCc1ccc(NS(=O)(=O)c2c(C(=O)N3CCOCC3)c(C)n(C)c2C)cc1	0.0
C=CCc1ccc2oc(C(=O)OCC)cc(=O)c2c1O	-0.4
O=C(O)c1ccc(/C=N/N2CCN(c3ccccc3)CC2)cc1	0.1
CCOc1ccc(Br)cc1S(=O)(=O)Nc1ccc(Cl)c(S(=O)(=O)N(CC)c2ccccc2)c1	-0.7
C/C(Nc1cccc(F)c1)=C(/C#N)C(N)=O	2.5
O=C(O)C1C2C=CC(O2)C1C(=O)NC1CCCc2ccccc21 (configuration not stated)	-1.1
CC(=O)c1cccc(OCC(O)CNCC2CCCCC2)c1 (configuration not stated)	-0.5
COc1cccc(NC(=O)NC2CC(=O)N(c3ccc4c(c3)OCCO4)C2)c1 (configuration not stated)	-0.1
COc1c(Cl)ccc(Cl)c1C(=O)NC(=O)Nc1nc(C)cc(C)n1	11
Cn1c(CCN2CCCCC2)nc2cc(NC(=O)Nc3ccccc3)ccc21	0.0
O=C(NCc1ccccc1)c1c(O)c2cccc3c2n(c1=O)CCC3	0.1
COc1cc(Cl)ccc1S(=O)(=O)n1nc(C)cc1C	-1.2

The final two records of the section before come first, to join the parts.
SMILES	STK33 kinase inh
O=C(NCc1ccccc1)c1c(O)c2cccc3c2n(c1=O)CCC3	0.1
COc1cc(Cl)ccc1S(=O)(=O)n1nc(C)cc1C	-1.2
CC(C)c1cc(NC(=O)CCl)on1	-3.2
NC(=O)C(c1ccc(Cl)cc1)c1ccc(Sc2ccccc2)nn1 (configuration not stated)	0.9
O=C(NNc1ccccc1)C(=O)NNS(=O)(=O)c1ccc(CCCl)cc1	-1.2
COc1ccc(CCC(=O)N2CCN(c3cccc(C)c3C)CC2)cc1	-1.4
COc1ccc(Cl)cc1NC(=O)CSc1nnc(CN2CCOCC2)n1-c1ccc(Cl)cc1	0.3
CCN(CC)S(=O)(=O)c1ccc(NC(=O)COC(=O)c2cnc(C)cn2)cc1	0.6
CCOc1ccc(N(CC(=O)NN=C2CCCC2)S(C)(=O)=O)cc1	-0.9
O=C(NCCN1CCOCC1)c1cc(Sc2cccc(Cl)c2)nc2ccccc12	-1.3
Cc1ccc(C)c(NC(=O)CSc2nnc(-c3ccccc3)o2)c1	-2.7
Cc1nn(C)c(C)c1S(=O)(=O)N1CCC(CO)(CC2CCCCO2)CC1 (configuration not stated)	-0.8
COc1ccc(CN(CC(=O)NCc2ccc(F)cc2)C(=O)CCC(=O)Nc2nccs2)cc1	0.0
CN1C(=O)N(c2ccccc2)C(Nc2nncs2)C1(C)C (configuration not stated)	-0.4
COc1cc2c(cc1OC)C(c1cc(Br)c(OC)c(OC)c1)CC(=O)N2 (configuration not stated)	-2.1
COc1ccccc1C(=O)N/C(=C\c1cn(C)c2ccccc12)C(=O)N1CCCC1	-0.1
COc1ccc(NC(=O)c2ccco2)c(NC(=O)Cc2cccs2)c1	-1.5
c1ccc(C(c2ccccc2)c2noc(CN3CCC(c4ccncc4)CC3)n2)cc1	1.0
COc1ccc(/C=N/NC(=O)c2ccco2)cc1Cn1nc(C)c([N+](=O)[O-])c1C	-0.6
CCN(Cc1cccc(F)c1)C(=O)c1ccc2ccccc2n1	1.3
COc1nnc(-c2ccc(N3CCCCC3)c(NC(C)=O)c2)c2ccccc12	0.3
O=C(CSc1ccc2nnc(-c3ccncc3)n2n1)Nc1ccccc1F	-0.5
Cc1c(-n2c(SCC(C)C)nc3ccccc3c2=O)c(=O)n(-c2ccccc2)n1C	0.8
Cc1cccc(-n2ncc(C(=O)NC3CCCC3)c2C2CCN(C(=O)OC(C)(C)C)CC2)c1	0.0
COc1ccccc1C(=O)OCc1ccc2sc(C)nc2c1	-0.1
CCOC(=O)N1CCN(C(=O)c2cnn(-c3ccccc3)c2NC(=O)c2ccccc2F)CC1	-0.6
CC1CCCCC1NC(=O)CO/N=C/c1ccc(OC(F)F)cc1 (configuration not stated)	1.0
COC(=O)CCCNC(=O)CC1C(=O)NCCN1Cc1ccoc1 (configuration not stated)	-0.3
CCN1CCN(CC(=O)n2c3c(c4ccccc42)CC(C)CC3)CC1 (configuration not stated)	0.6
Cc1cnc(NC(=O)CSc2nnc(Cc3ccccc3)n2C)s1	-1.0
COc1cc(C(=O)OCC(=O)NC2CCCC2)cc(NC(=O)c2ccco2)c1OC	-0.4
CCOc1ccc(NC(=O)CCNC(=O)Cn2cnc3ccccc3c2=O)cc1	-1.6
CC1=CC(C)(C)N2C(=O)C3(C(C#N)=C(N)OC4=C3C(=O)CC(C)(C)C4)c3c(C)c(C)cc1c32 (configuration not stated)	0.7
O=c1ccnc(Nc2ccc3c(c2)OCCO3)[nH]1	0.1
O=C(Nc1ccc(N2CCOCC2)c(Cl)c1)c1cccc(F)c1	1.4
Cc1ccnc(NC2c3ccccc3C(=O)N2Cc2ccccc2Cl)c1 (configuration not stated)	0.1
N/C(CC(=O)Nc1ccc(F)cc1F)=N\OC(=O)c1cccs1	-1.3
CCN1C(=O)c2ccccc2S(=O)(=O)c2ccc(C(=O)NCc3cccnc3)cc21	-1.0
CN(C)CCCNc1ccc(S(N)(=O)=O)cc1[N+](=O)[O-]	0.2
Cc1cc(C(=O)NNC(=O)COc2ccccc2Cl)n[nH]1	-0.5
O=C(Nc1nc2c(F)cc(F)cc2s1)C1CCN(C(=O)c2ccc(F)cc2)CC1	-0.6
CC(NC(=O)Nc1ccc(Cl)cc1)C1CCCO1 (configuration not stated)	-2.3

Part of the list above in order of SMILES length, lowest first:
SMILES	STK33 kinase inh
CC1CCCCC1NC(=O)CO/N=C/c1ccc(OC(F)F)cc1 (configuration not stated)	1.0
CN(C)CCCNc1ccc(S(N)(=O)=O)cc1[N+](=O)[O-]	0.2
O=C(Nc1nc2c(F)cc(F)cc2s1)C1CCN(C(=O)c2ccc(F)cc2)CC1	-0.6

More records follow.
SMILES	STK33 kinase inh
Cc1nnc(SCC(=O)N2CCN(S(=O)(=O)c3ccccc3)CC2)n1Cc1ccccc1	-1.1
CCOC(=O)c1cc(C)sc1NC(=O)c1ccc(Cl)s1	-1.5
CC(=O)c1c(C)[nH]c(C(=O)OCC(=O)N2CC(=O)Nc3ccccc32)c1C	1.5
Cc1onc(-c2ccccc2)c1C(=O)NC(C)c1ccccc1 (configuration not stated)	-1.3
COc1ccc(C(=O)CSc2nnc(CNC(=O)c3ccccc3)o2)cc1	0.3
Cc1cc(C)n(/N=C/c2cccc([N+](=O)[O-])c2)c(=O)c1	-0.4
CCc1ccc(NC(=O)C(C)OC(=O)c2ccc(-n3cnnn3)cc2)cc1 (configuration not stated)	-0.8
CC(C)(O)C(=O)NN(C(=O)c1ccccc1)c1cccc(Br)c1	-3.3
O=C(c1cccc(Br)c1)N1CCN(C2=NS(=O)(=O)c3ccccc32)CC1	-0.5
CCOc1ccccc1OCC(=O)NCc1ccco1	-1.1
Cc1cc(NC(=O)CSc2nc(C)c(C)c(=O)[nH]2)no1	-0.1
CCOC(=O)c1nn(-c2ccc(Br)cc2)cc1C(=O)c1cccc2ccccc12	-0.1
COCCNC(=O)C1CCCN(S(=O)(=O)c2ccc3c(c2)CC(C)N3C(=O)C2CC2)C1 (configuration not stated)	0.8
Cc1oc2nc(SCC(=O)NCCCO)nc(N)c2c1C	0.1
CC(C)CCC(C(=O)O)C(C)CC(=O)NNC(=O)c1ccco1 (configuration not stated)	-2.2&-1.5
CCN1CNC(=S)N(c2cccc(C)c2C)C1	0.4
COc1cc(NC(=O)c2[nH]c(C)c(C(C)=O)c2C)cc(OC)c1OC	1.1
CN(C)S(=O)(=O)c1ccc(C(=O)Nc2ccccn2)cc1	0.4
CCC(=O)NC1(C(F)(F)F)C(=O)Nc2c1c(=O)[nH]c(=O)n2CC(C)C (configuration not stated)	-0.6
CNC(=O)/C(C#N)=C/c1ccc(-c2ccc(OC)cc2[N+](=O)[O-])o1	-0.8
COc1ccccc1S(=O)(=O)Cc1ccc(C(=O)NCc2ccc3c(c2)OCO3)o1	0.6
CCc1sc(N(C(=O)Cc2ccccc2)c2ccc(F)cc2)nc1-c1ccccc1	0.2
Cc1ccnc(N2CCC(C(=O)Nc3cccc(C(F)(F)F)c3)CC2)n1	-5.2
COc1cccc(Cn2cccc(NC(=O)NCc3ccccc3)c2=O)c1	-0.5
Cc1nn(C)c(C)c1S(=O)(=O)N(CC(=O)NC1CCCCCC1)c1ccc(C(C)C)cc1	-0.1
CC(Sc1ncc(C(F)(F)F)cc1Cl)C(=O)NC(N)=O (configuration not stated)	-0.9
CCN(CC(=O)Nc1ccccc1OC)C(=O)CCc1ccccc1	-0.3
CC1CCCN(C(=O)c2cc3c(=O)n4ccccc4nc3s2)C1 (configuration not stated)	0.3
CCOC(=O)CN1CC23C=CC(O2)C(C(=O)NC2CCCCC2)C3C1=O (configuration not stated)	-2.3
COn1c(=O)c(-c2ccc(C)cc2)[n+]([O-])c2ccccc21	1.7
O=C(NN1CCN(Cc2ccccc2Cl)CC1)c1ccc(Br)cc1	0.2
FCCCOc1ccc(-c2ccnc3ncnn23)cc1	-0.9
COc1cccc(/C=C2/SC(=S)N(CC(=O)NNC(=O)c3ccccc3O)C2=O)c1	0.0
CCN(CC)C(=O)CSc1ncnc2sccc12	-4.2
COc1cc(CCC(=O)Nc2sccc2C#N)cc(OC)c1OC	-0.2
COc1cccc(-n2nc3c(=S)[nH]nc(C)c3c2C)c1	-1.5
Fc1ccccc1CNc1cc(Cl)cc(Cl)c1	0.5
CC(=O)/C(=N/Nc1ccccc1C)N1CCOCC1	-1.9
CC(C)N(C1=CC(=O)OC12CCCCC2)C(C)C	0.6
CCOC(=O)C1CCCN(C(=O)c2cc(S(=O)(=O)N3CCCCC3)ccc2Cl)C1 (configuration not stated)	-2.9

A few values from the entries so far.
Cc1ccnc(N2CCC(C(=O)Nc3cccc(C(F)(F)F)c3)CC2)n1 @ STK33 kinase inh: -5.2
Fc1ccccc1CNc1cc(Cl)cc(Cl)c1 @ STK33 kinase inh: 0.5
COc1cccc(Cn2cccc(NC(=O)NCc3ccccc3)c2=O)c1 @ STK33 kinase inh: -0.5

Quoted at random: 5 entries already listed
SMILES	STK33 kinase inh
CCOC(=O)CN1CC23C=CC(O2)C(C(=O)NC2CCCCC2)C3C1=O (configuration not stated)	-2.3
CC(=O)/C(=N/Nc1ccccc1C)N1CCOCC1	-1.9
CCN(CC)C(=O)CSc1ncnc2sccc12	-4.2
Cc1nn(C)c(C)c1S(=O)(=O)N(CC(=O)NC1CCCCCC1)c1ccc(C(C)C)cc1	-0.1
COc1cccc(-n2nc3c(=S)[nH]nc(C)c3c2C)c1	-1.5

Later entries
SMILES	STK33 kinase inh
CCOC(=O)c1c(O)c2c([nH]c1=O)CCCC2	0.4
NS(=O)(=O)c1cc(C(=O)Nc2ccc3c(c2)CCC3)ccc1Cl	0.3
CN(C)S(=O)(=O)c1ccc(N2CCCC2)c(C(=O)NCC2CCCO2)c1 (configuration not stated)	-0.1
O=C(CCS(=O)(=O)c1ccc(Cl)cc1)Nc1ccc(N2CCOCC2)cc1	-0.6
O=C1Cc2ccccc2N1c1c(Cl)cccc1Cl	-0.7
COc1ccc(NS(=O)(=O)c2ccc3oc(SC4CCOC4=O)nc3c2)cc1 (configuration not stated)	-1.1
COc1ccc([N+](=O)[O-])cc1N(CC(=O)N1CCN(Cc2ccccc2)CC1)S(C)(=O)=O	-0.5
COc1ccc(S(=O)(=O)Nc2nnc(Cc3ccc(OC)c(OC)c3)s2)cc1	-1.5
CN(C)CCn1c(=O)n(-c2cccc(Cl)c2)c(=O)c2c3c(sc21)CCCCC3	0.2
Cc1nnc(NC(=O)c2cccc(S(=O)(=O)N3CCOCC3)c2)s1	11
O=c1cc(C(F)F)oc2c1ccc1ccccc12	-0.4
O=C(Nc1ccc2nccnc2c1)Nc1ccccc1Cl	-2.0
CCOC(=O)c1ccc(Nc2nc(C(=O)OCC)nc3ccccc23)cc1	-0.9
CC(=O)c1c(N)n(C)c(=O)n(C)c1=O	-1.3
NC(=O)C1CCN(CC(O)CSc2ccccc2)CC1 (configuration not stated)	0.2
COc1ccccc1OCc1nc(Cc2ccc(Cl)cc2)no1	-0.4
O=C(c1cc2c(=O)n3ccccc3nc2s1)N1CCN(Cc2ccccc2)CC1	0.2
CCOc1cc(C(C(=O)NCC2CCCO2)N(C(=O)Cn2nnc3ccccc32)c2ccccc2C(C)=O)ccc1O (configuration not stated)	0.4
COC(=O)c1ccc(OCC(O)CN2CCN(C(=O)c3ccco3)CC2)c(OC)c1 (configuration not stated)	-0.2
CN(C)S(=O)(=O)c1ccc(C(=O)NCCc2ccco2)cc1	-0.7
COc1ccc(-c2cc(C(=O)O)c3sc(N4CCCCC4)nc3n2)cc1OC	-1.0
CC(C)(C)Cc1nc(-c2ccccn2)no1	-0.3
Cc1ccc(S(=O)(=O)Nc2ccc(N(C)S(=O)(=O)c3ccc(C)cc3)cc2)cc1	-2.3
COc1ccc(N2CC(NC(=O)N3CCN(C(=O)c4ccco4)CC3)CC2=O)cc1OC (configuration not stated)	0.3
CC1(C)Cc2noc(N)c2C(C)(C)N1O	-0.2
O=C(CN1CCSCC1)c1c[nH]c2ccccc12	-1.2
CC1CCC(C(=O)NC(C(=O)NCc2cccnc2)C(C)C)CC1 (configuration not stated)	-3.5
N#Cc1cc(-c2ccccc2)cnc1Sc1ccccc1	-2.5
CCOC(=O)c1sc2nc(C(C)C)c3c(c2c1N)CC(C)(C)OC3	-1.4

Bioassay records: PubChem BioAssay, Broad Institute

These rows are one share of the data, and most or all hits are left out here.
